T cruzi inh = inhibitors of intracellular T. cruzi growth, primary screen, luminescence, NIH3T3 host cells | inhibition, % (test concentration not listed) | 300,000 tested, 1.4% active | T. cruzi beta-gal in NIH3T3, 90 h;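 active = mean inhibition across valid replicates above about 55%, limit read from the data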;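 also: signal also drops with host cell toxicity which is not excluded here; 0% = plate median of DMSO wells and 100% = zero luminescence signal; higher percent means less beta-gal luminescence so fewer parasites; stock transfer was 50 nL into about 50 µL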
Beta2AR agonist = beta2AR agonists driving receptor internalization, primary screen, cell-based, FAP fluorogen, flow cytometry; AID 504454, 2011; 340,000 tested, 0.43% active; Am2.2-beta2AR cells; reference of the scale not given here; response, % (no concentration beside the values);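 active = response above a set limit, near 3 SD of response in nonfluorescent compounds, cut at about 42% in these data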;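 also: stock transfer was 100 nL into about 11 µL; a reference agonist was the positive control; negative values mostly stem from fluorescent compounds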
LANA-H2B inh = blockers of LANA interaction with H2A/H2B – biochemical, FP readout, HTS, primary screen. Protein LANA1 (Human herpesvirus 8 type P (isolate GK18)), Q9QR71. cell-free LANA-H2A/H2B peptide, fluorescence polarization. inhibition, % (no concentration beside the values). 320,000 tested, 0.6% active. AID 2629, 2010; in the data active = inhibition mostly above about 10%, no sharp cut-off; inactive = mostly below about 6.7%;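 also: stock transfer was 7.5 nL into about 10 µL; 0% = median of vehicle wells and 100% = median of positive control wells; one replicate is shown; the record names a cut of 25% in any replicate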
RanGTP-Impb inh = inhibitors of RanGTP-importin-beta interaction, primary screen, biochemical, FRET, CFP-Ran, YFP-importin-beta, homogeneous; cell-free CFP-Ran/YFP-importin-beta FRET ratio; 300,000 tested, 1.1% active; inhibition, % (no concentration beside the values);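 active = most replicates above 15%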;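 also: 0% = DMSO wells and 100% = Ran loaded with GDP instead of GTP; wells of about 40 µL received 100 nL stock; the first replicate is given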
Beta apoptosis = inhibitors of cytokine-induced beta cell apoptosis, primary screen, luminescence; 300,000 tested, 0.8% active; protection from apoptosis, % (no concentration beside the values); INS-1E cytokine-induced death, ATP luminescence, 48 h; percent of positive-control rescue, neutral wells zero;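 active = all replicates at 75% or more, or half of them and the mean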;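 also: 0% = cytokine-treated negative control wells and 100% = positive control rescue; higher means more ATP so stronger rescue from cytokine killing; wells of about 40 µL received 100 nL stock; the first replicate is given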
Bfl-1 A1 inh = caspase 3/7 activation in MEF A1-2A-BIM cells, primary screen, A1 inhibitor project, cell-based, luminescence, HTS; 330,000 tested, 0.066% active; AID 2462, 2010; Caspase-Glo 3/7 luminescence, 3 h; percent of clofoctol response, vehicle zero; caspase activation, % (test concentration not listed);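 active = over half of replicate activation scores above 10%, or exactly half above 10 with the replicate mean above 10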;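 also: wells of about 30 µL received 50 nL stock; many hits fall short of the cut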
UCH37 DUB inh = inhibitors of human UCH37 deubiquitinase, primary screen, biochemical, Ub-AMC cleavage, fluorescence | inhibition, % (test concentration not listed) | AID 588478, 2011 | 330,000 tested, 0.33% active | Ubiquitin carboxyl-terminal hydrolase isozyme L5 (Homo sapiens), Q9Y5K5 | purified proteasome/UCH37;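 active = mean of two replicates above 20%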;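 also: 0% = compound-free wells with enzyme and 100% = wells lacking proteasome; stock transfer was 100 nL into about 20 µL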
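system = Proteasome-associated human UCH37 deubiquitinase | amount = 0.15 nM proteasome as dispensed | medium = pH 7.4 Tris-HCl (50 mM) with ovalbumin, ATP-MgCl2, DTT | incubation = 30 min preincubation with enzyme, 25 min cleavage at room temperature | detection = AMC fluorescence 355/460 nm | read-out basis = percent inhibition | controls = no-proteasome and no-compound wells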
* hit, by the source's call; & = joins results of further samples. This is a subset; the hit share may differ from the screen's.

SMILES | T cruzi inh | Beta2AR agonist | LANA-H2B inh | RanGTP-Impb inh | Beta apoptosis | Bfl-1 A1 inh | UCH37 DUB inh
CC[C@@H]1C(=O)OC[C@@H]1Cc1cncn1C | -10&-14 | -9&-12 | -6.5&-18 | 1.2&1.0 | -9&2 | -0.2&0.7 | 7.2&-1.5

Bioassay records (PubChem BioAssay)
